Screening data as filed in PubChem.
ClpP mod – qHTS Assay for Activators of ClpP. ATP-dependent Clp protease proteolytic subunit (Bacillus subtilis (strain 168)), P80244. purified B. subtilis ClpP, FRET peptide cleavage, 20 min. Potency, µM (highest dose often 57.5 µM), for inactives: top-dose activity change, negative = active. actives 1.9% (n = 340,000). AID 651965, 2013; active = well fitted falling curve with a large enough effect; inconclusive = small, poorly fitted or top-dose-only effect; inactive = no such curve, though single readings can be large or run the other way; note: the source files actives as falling curves though it sought activators and does not explain the sign; nearly all actives have a fitted effect of over 65% in size; many hits overshoot -100%
Target sequence (P80244 whole entry, looked up): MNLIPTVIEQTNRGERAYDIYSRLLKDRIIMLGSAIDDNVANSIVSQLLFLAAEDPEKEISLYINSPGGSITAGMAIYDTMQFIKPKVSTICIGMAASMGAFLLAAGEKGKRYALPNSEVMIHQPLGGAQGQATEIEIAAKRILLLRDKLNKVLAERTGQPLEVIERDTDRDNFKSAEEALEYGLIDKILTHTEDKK
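ClpP 10 microg/mL final, pH 8 Tris/KCl buffer with BSA, glycerol, Tween-20; compound pinned in; FRET-FV substrate; RT 20 min; Ex320/Em430; ΔFRET vs ADEP 5.8 microM, DMSO, no enzyme.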
Starred values were filed as active, the others as inactive; ? = inconclusive. Potency is the fitted concentration of half-maximal effect.

CCN1c2ccccc2-n2cccc2C12CCN(C(=O)Nc1ccccc1C(F)(F)F)CC2
  ClpP mod: -3.8%

O=C(CCn1c(=O)c2cccn2c2cccnc21)N1CCN(c2cccc(C(F)(F)F)c2)CC1
  ClpP mod: -4.7%

COc1ccc(CNC(=O)c2c3c(nc4ccccc24)C(=O)N(C2CCCCC2)C3)c(OC)c1
  ClpP mod: -1.1%

O=C(c1cc2ccccc2oc1=O)N(Cc1cccc(Cl)c1)C1CCS(=O)(=O)C1 (stereo unspecified)
  ClpP mod: -21%

CCCN(c1c(C)n(C)n(-c2ccccc2)c1=O)S(=O)(=O)c1ccc(C)cc1
  ClpP mod: -4.0%

COc1ccc(NC(=O)c2cc(C)nc3c2c(C)nn3-c2ccc(C)cc2)cc1OC
  ClpP mod: 9.1%

Cc1ccc(NC(=O)c2cc(CN3CCOCC3)on2)cc1Cl
  ClpP mod: 0.3%

CCc1nn2c(=O)cc(COC(=O)c3ccccc3NC(=O)COc3ccccc3C)nc2s1
  ClpP mod: -15%

CCN(c1ccccc1)c1nnc(NC(=O)Nc2cccc(Br)c2)s1
  ClpP mod: -6.8%

Cc1noc(/C=C/c2cccs2)c1S(=O)(=O)N1CCC(C(=O)NCc2ccc(Cl)cc2)CC1
  ClpP mod: -0.2%

COc1ccc(CNC(=O)c2nc(SCc3ccc(C)cc3)ncc2Cl)cc1
  ClpP mod: -22%

Cn1c(=O)c2c([nH]c(=O)n2Cc2ccc(Cl)cc2Cl)n(C)c1=O
  ClpP mod: -1.0%

NC1=NC(=O)/C(=C\c2ccc(-c3ccccc3[N+](=O)[O-])o2)S1
  ClpP mod: -1.9%

Cc1ccc(CN2CCN(C3CCN(S(=O)(=O)c4ccc(C)cc4)CC3)C(=O)C2=O)cc1
  ClpP mod: 0.7%

CCCCN(Cc1ccccc1)S(=O)(=O)c1ccc2c(c1)CC(C)N2C(=O)CC (stereo unspecified)
  ClpP mod: -3.4%

COC(=O)c1ccccc1NC(=O)Cn1c(=O)cc(C)c2c(C)nn(-c3cccc(Cl)c3C)c21
  ClpP mod: 0.6%

Cc1c(C(=O)NCc2ccc(F)cc2)sc2nc(-c3ccccc3)cn12
  ClpP mod: 0.4%

COC(=O)c1c(NC(=O)c2cc(=O)c3ccc(C)c(C)c3o2)sc2c1CCCC2
  ClpP mod: -0.6%

Cc1ccc(S(=O)(=O)c2nc(-c3cccs3)oc2SCc2ccc(F)cc2)cc1
  ClpP mod: -12%

COc1ccc(C2NC(=O)N(C)C3=C2C(=O)N(c2ccccc2)C3)cc1 (stereo unspecified)
  ClpP mod: -17%

Cc1cccc(C)c1NC(=O)CSc1nc(-c2cccs2)cc(C(F)(F)F)n1
  ClpP mod: -7.1%

O=C(CCS(=O)(=O)c1ccc(Br)cc1)Nc1ccc(F)cc1F
  ClpP mod: -1.7%

CCOc1ccccc1NC(=O)N1CCc2c(sc(C)c2CC)C1c1ccccc1 (stereo unspecified)
  ClpP mod: -4.5%

Cc1c(Cl)cccc1NC(=O)Nc1c[nH]c(=O)[nH]c1=O
  ClpP mod: -0.7%

COc1ccc(CNC(=O)c2ccc(N3CCCC3)c(NC(=O)NCc3ccc(F)cc3)c2)cc1
  ClpP mod: ?

CCOc1ccccc1C(=O)Nc1cc(-c2ccc(C)cc2)no1
  ClpP mod: -2.7%

COc1ccccc1NC(=O)c1ccc(-c2nc(COc3ccc(C)cc3)c(C)o2)cc1
  ClpP mod: ?

CN(C)c1ccc(C=O)cc1
  ClpP mod: -3.3%

O=C(NCc1ccc(Cl)cc1)NCc1noc2ccccc12
  ClpP mod: 0.6%

CCOC(=O)c1cc(-c2ccc(OC)cc2)n(CCC(=O)Nc2ccccc2OC)c1C
  ClpP mod: -4.8%

Fc1ccc(Nc2nc(Nc3ccc(F)cc3)nc(N3CCOCC3)n2)cc1
  ClpP mod: 2.9%

CCc1ccc(C2CC(=O)Nc3c2c(=O)n(C)c2ncnn32)cc1 (stereo unspecified)
  ClpP mod: -5.3%

CCOc1cc(-c2nnc(SCC(=O)Nc3ccc(F)c(F)c3)nc2-c2ccc(OC)c(OCC)c2)ccc1OC
  ClpP mod: -0.3%

COC(=O)c1ccc(Cl)cc1NC(=O)NCc1c(-n2cccc2)sc2c1CCCC2
  ClpP mod: -6.9%

COc1ccc(CNC(=O)CCC2N=C3c4ccccc4N=C(SCC(=O)NCCc4ccc(OC)c(OC)c4)N3C2=O)cc1 (stereo unspecified)
  ClpP mod: -8.8%

Cc1cc(-c2nc3ncccc3o2)ccc1NC(=O)c1ccc(Br)cc1
  ClpP mod: -15%

CCOc1ccc(NC(=O)CCCc2nnc3n(C)c(=O)c4sccc4n23)cc1
  ClpP mod: -3.4%

Cc1ccc(O)c(-c2ccnc3cc(-c4ccc(Cl)cc4)nn23)c1
  ClpP mod: -29%

Cc1ccc(Cl)cc1N1CCN(C(=O)c2ccc(C)c(-n3c(C)nc4cccnc43)c2)CC1
  ClpP mod: -7.9%

CCOc1ccc(NC(=O)Cn2c(=O)n(Cc3nc(-c4ccccc4)no3)c(=O)c3ccccc32)cc1
  ClpP mod: -0.9%

CCCOc1ccc(C2c3c(-c4ccccc4O)n[nH]c3C(=O)N2CCc2ccccc2)cc1OCC (stereo unspecified)
  ClpP mod: -3.9%

COc1ccc(CNC(=O)C2CCN(S(=O)(=O)c3c(C)noc3/C=C/c3ccccc3F)CC2)cc1
  ClpP mod: ?

COc1ccc(C(=O)CC2(O)C(=O)N(Cc3cccc(C(F)(F)F)c3)c3ccccc32)cc1 (stereo unspecified)
  ClpP mod: 1.5%

COc1cccc(-c2nc(SCC(=O)NCC3CCCO3)c(-c3ccc(F)cc3)[nH]2)c1 (stereo unspecified)
  ClpP mod: 4.1%

COc1cccc(CNC(=O)c2ccc3c(c2)c(C)c(C)n3Cc2ccccc2)c1OC
  ClpP mod: ?

Shown as a markdown table: part of the list above.
| compound | ClpP mod |
| --- | --- |
| Cc1c(C(=O)NCc2ccc(F)cc2)sc2nc(-c3ccccc3)cn12 | 0.4% |
| COC(=O)c1c(NC(=O)c2cc(=O)c3ccc(C)c(C)c3o2)sc2c1CCCC2 | -0.6% |
| Cc1ccc(S(=O)(=O)c2nc(-c3cccs3)oc2SCc2ccc(F)cc2)cc1 | -12% |

Further records.
Cc1ccc(C)c(N2CCN(C(=O)c3cccn3-c3nnc(N4CCCCC4)s3)CC2)c1
  ClpP mod: -4.1%

COc1ccccc1C(=O)N1c2ccccc2C(C)(c2ccc(Cl)cc2)CC1(C)C (stereo unspecified)
  ClpP mod: -5.3%

O=C(CSc1oc(-c2ccco2)nc1S(=O)(=O)c1ccc(Cl)cc1)Nc1ccc(F)cc1
  ClpP mod: 3.4%

CCC(C(=O)NCc1ccccc1)n1nc(C)c2sc3ccccc3c2c1=O (stereo unspecified)
  ClpP mod: -6.4%

CCn1c(=O)sc2cc(NC(=O)c3cccc(OC)c3)ccc21
  ClpP mod: -1.9%

CCc1ccccc1NC(=O)C1CCCN(C(=O)c2cnn(-c3ccccc3)c2-n2cccc2)C1 (stereo unspecified)
  ClpP mod: 0.7%

COC(=O)c1ccc(N2C(=O)Cc3cc(OC)c(OC)cc3C2c2ccc(F)cc2)cc1 (stereo unspecified)
  ClpP mod: -6.4%

COc1ccc(-c2nc3sc(CCNC(=O)C(=O)Nc4cc(C)cc(C)c4)c(C)n3n2)cc1
  ClpP mod: 0.3%

CCOc1ccc(C2c3[nH]c4ccccc4c3CCN2C(=O)CCC2CCCC2)cc1 (stereo unspecified)
  ClpP mod: -2.9%

CCn1c(=O)c2sccc2n2c(CCC(=O)N3CCN(c4ccc(C(C)=O)cc4)CC3)nnc12
  ClpP mod: -1.6%

Cc1ccc(NC(=O)Cn2cnc3c(oc4ccccc43)c2=O)cc1
  ClpP mod: 1.6%

COc1cccc(N2CC(NC(=O)c3cc(Cl)ccc3OC)CC2=O)c1 (stereo unspecified)
  ClpP mod: -6.5%

CCOC(=O)Cc1ccc(NC(=O)Nc2cc3c(cc2N2CCCCC2)n(C)c(=O)n3C)cc1
  ClpP mod: 3.5%

CC1(C)CC(=O)C2=C(C1)NC(Nc1nc3ccccc3o1)=NC2c1cccc(O)c1 (stereo unspecified)
  ClpP mod: -16%

CCOc1ccc(/C=C/c2nc(C#N)c(NC(C)c3ccccc3)o2)cc1 (stereo unspecified)
  ClpP mod: 4.2%

Cc1nc(Oc2ccc(F)cc2Cl)c2oc3ccccc3c2n1
  ClpP mod: -2.5%

CC(=O)c1ccc(N2CCN(S(=O)(=O)c3cc(-c4noc(C)n4)ccc3C)CC2)cc1
  ClpP mod: -4.2%

COc1ccc2nc(NC(=O)c3ccc(S(=O)(=O)N4CCCC(C)C4)cc3)sc2c1 (stereo unspecified)
  ClpP mod: -0.2%

CC(C)C1C(=O)Nc2ccc(S(=O)(=O)NCc3ccc(Cl)cc3)cc21 (stereo unspecified)
  ClpP mod: 15%

COc1cc(Cl)c(C)cc1NC(=O)c1ccc(CN2C(=O)CCn3nc(C)cc32)cc1
  ClpP mod: -6.0%

CCS(=O)(=O)N1CC(=O)N(c2ccc(Cl)cc2)C(C)(C(=O)NC2CCCCC2)C1 (stereo unspecified)
  ClpP mod: -0.6%

COc1ccc(C(=O)CCC(=O)Nc2ccc(F)cc2F)cc1
  ClpP mod: -1.6%

Cc1cc(C)cc(NC(=O)CSc2nc3sc4c(c3c(=O)[nH]2)CCCC4)c1
  ClpP mod: -9.4%

Cc1ccc(C)c(CSc2cn(CC(=O)N3CCCCCC3)c3ccccc23)c1
  ClpP mod: -2.4%

CNc1ccc(C=O)cc1Cl
  ClpP mod: -5.8%

CCCCC(=O)N(c1ccc2oc(C)c(C(C)=O)c2c1)S(=O)(=O)c1ccc(F)cc1C
  ClpP mod: -3.3%

Cc1ccc(N2CCN(C(=O)c3c4c(nc5ccccc35)C(=O)N(C3CCCCC3)C4)CC2)c(C)c1
  ClpP mod: 1.4%

CCOC(=O)c1c(NC(=O)Cc2coc3ccc(CC)cc23)sc2c1CCC2
  ClpP mod: ?

CCOc1ccccc1NC(=O)C(C)Sc1nc2c(c(=O)[nH]1)CCCC2 (stereo unspecified)
  ClpP mod: -0.1%

CCCCOc1ccccc1NC(=O)Cn1c(-c2cncs2)nc2ccccc21
  ClpP mod: -14%

CCCn1c(=O)c2sccc2n2c(CCCC(=O)Nc3ccccc3F)nnc12
  ClpP mod: -9.3%

COc1ccc(-c2noc(CSCC(=O)Nc3ccc(C)cc3Br)n2)cc1OC
  ClpP mod: 0.4%

O=C(Cn1nc(-c2ccccc2)c2cnc3ccccc3c21)Nc1ccccc1
  ClpP mod: -3.3%

COc1ccc(NC(=O)NCCn2nnc3cc(S(=O)(=O)N(C)C)ccc32)cc1
  ClpP mod: 0.1%

CCn1c(C(=O)NCc2cccc(Br)c2)cc2oc3ccccc3c21
  ClpP mod: 4.2%

CCOc1ccccc1CNC(=O)C1CCN(C(=O)N2CC(CC)Oc3ccc(C)cc32)CC1 (stereo unspecified)
  ClpP mod: 1.2%

CCCCOc1ccc(C(=O)NCC(c2ccc(Cl)cc2)N2CCOCC2)cc1 (stereo unspecified)
  ClpP mod: 2.4%

Cc1ccccc1C(=O)NCC(c1ccc(N(C)C)cc1)N1CCCC1 (stereo unspecified)
  ClpP mod: -2.4%

COc1ccc2c(c1)c1c(c(=O)n(-c3ccc(F)c(Cl)c3)c(=O)n1CC(N)=O)n2C
  ClpP mod: 4.0%

Cc1cc(C)cc(C(=O)n2nc(C)c(S(=O)(=O)N3CCCCCC3)c2C)c1
  ClpP mod: -0.9%

CS(=O)(=O)c1ccc(C(=O)OCC(=O)NC(=O)NC2CCCCC2)cc1[N+](=O)[O-]
  ClpP mod: -0.2%

CCCOc1ccc(NC(=O)CC2C(=O)N(c3ccc(C)cc3)C(=O)N2C2CCCC2)cc1 (stereo unspecified)
  ClpP mod: 2.0%

Cc1ccc(-c2[nH]ncc2CNCc2ccccc2)cc1
  ClpP mod: 1.0%

COc1ccccc1CN1CCNC(=O)C1=O
  ClpP mod: 1.2%

Nc1ccc(/C=C/c2nc3ccccc3s2)cc1
  ClpP mod: -1.6%

CCc1ccccc1-n1nnc(-c2nc(-c3ccccc3F)no2)c1C
  ClpP mod: 1.1%

COc1ccc(OC)c(CCNC(=O)c2ccc3c(c2)N(Cc2ccc(C)cc2)CCS3)c1
  ClpP mod: 4.6%

CCc1cccc(CC)c1NC(=O)C1CCC(CNS(=O)(=O)c2cccc3nsnc23)CC1 (stereo unspecified)
  ClpP mod: -4.3%

Clc1ccc(-c2noc3ncnc(N4CCCCC4)c23)cc1
  ClpP mod: -4.3%

CCOc1ccc(CCNC(=O)c2cccc(-n3c(C)nc4cccnc43)c2)cc1
  ClpP mod: -2.0%

CCc1ccc(NC(=O)C2CCCN2S(=O)(=O)c2ccc3c(c2)CCCC(=O)N3)cc1 (stereo unspecified)
  ClpP mod: -1.9%

CCOc1ccc(NC(=O)NCCc2c(C)nn(C)c2C)cc1
  ClpP mod: 1.0%

CC(C)c1ccc(OCc2cc(=O)n3c(-c4ccccc4)csc3n2)cc1
  ClpP mod: -13%

COc1ccc(S(=O)(=O)N(CC(=O)NCCc2ccccc2)c2ccc(Cl)cc2)cc1
  ClpP mod: -0.8%

COc1ccc(CCNC(=O)c2ccc3c(c2)N=C(C)c2ccccc2S3)cc1OC
  ClpP mod: 0.4%

Cc1ccc2c(c1)C(Cc1ccccc1F)C(=O)N2 (stereo unspecified)
  ClpP mod: 1.1%

COc1ccc(-c2cc(C(C)=O)c(C)n2CCC(=O)Nc2cccc(C)c2C)cc1
  ClpP mod: -6.1%

COc1ccc(-c2cc(-c3ccc4c(c3)NC(=O)CO4)nc3c2COc2ccc(C)cc2-3)cc1
  ClpP mod: -8.2%

C1=Cc2ccccc2/C1=C\c1ccc2c(c1)OCO2
  ClpP mod: 0.0%

CC(C)(C)C1CCc2c(sc(NC(=O)c3cc(-c4ccc(F)cc4)on3)c2C#N)C1 (stereo unspecified)
  ClpP mod: 9.6%

CC1=C(C(=O)OCC2CCCCC2)C(c2ccc(Cl)cc2)CC(=O)N1 (stereo unspecified)
  ClpP mod: -1.1%

Not all compounds are listed (hit frequency here may not be typical).
